Screening data (PubChem BioAssay)
Vaccinia stage – Vaccinia orthopox stage-specific inhibition; Vaccinia-infected cells, mCherry/Venus stage reporter fluorescence; hits give low values; some inactives read as strong as hits; activity change (mCherry), % (concentration not given with the values); 0.01% of 89,000 active;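 active means mCherry past -33% and 40 or more points under the early reporter, replicates agreeing; inconclusive means past -33% without that gap or agreement; tested in A549 cells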;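 further: scaled between vehicle wells and reference inhibitor wells; 23 nL library stock went into each well; one replicate is shown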
Vaccinia stage Venus – second read-out of Vaccinia stage, no call of its own (marks repeat the call); activity change (Venus), %; measured here: Venus reporter, other viral stage;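 negative = less Venus signal; first of two replicates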
* marks the source's active call; other numbers are inactive results; ? = inconclusive; · = not tested or not shown. This is a subset (hit frequency here may not be typical).

compound | Vaccinia stage | Vaccinia stage Venus
O=S(=O)(c1ccc(F)cc1)N1CCCCN2[C@H](CO)[C@@H](c3ccc(-c4ccccc4)cc3)[C@@H]2C1 | -1 | -16
C[C@H](CO)N1C[C@H](C)[C@H](CN(C)Cc2cccnc2)Oc2ncc(C3=CCCC3)cc2C1=O | -5 | -5
COc1ccc(NC(=O)N(C)C[C@@H]2OCCCC[C@H](C)Oc3ccc(NS(=O)(=O)c4ccc(Cl)cc4)cc3C(=O)N([C@H](C)CO)C[C@H]2C)cc1 | -31 | -23
C[C@@H]1CN([C@@H](C)CO)S(=O)(=O)c2ccc(-c3ccccc3)cc2O[C@@H]1CN(C)C(=O)CC1CC1 | -15 | -16
CO[C@H]1CN(C)C(=O)c2cc(NS(C)(=O)=O)ccc2OC[C@H](C)N(C(=O)C2CCOCC2)C[C@@H]1C | 17 | 14
CCC(=O)N1Cc2cc(C(=O)N(C)C)nc(-c3cccc(-c4cncnc4)c3)c2[C@H]1CCO | 10 | 7
C[C@@H]1CN([C@H](C)CO)C(=O)c2cc(C#Cc3ccccc3)cnc2O[C@H]1CN(C)CC1CCOCC1 | -34 | -18
C[C@H]1CN([C@@H](C)CO)C(=O)c2cc(NC(=O)CCCCCC(=O)Nc3ccccc3N)ccc2O[C@H]1CN(C)C | 14 | 16
CN1CCN(C(=O)C[C@@H]2CC[C@H]3[C@@H](COC[C@H](O)CN3C(=O)C3CCCC3)O2)CC1 | 11 | 12
COc1ccc(NC(=O)Nc2ccc3c(c2)C(=O)N([C@H](C)CO)C[C@@H](C)[C@@H](CN(C)C(=O)CCC(F)(F)F)OCCCC[C@H](C)O3)cc1 | 26 | 22
O=C(c1ccccc1)N1C[C@@H]2[C@H](c3ccccc31)[C@@H](CO)N2Cc1ccccc1F | 4 | 6
O=C(CC(F)(F)F)N1C[C@H]2[C@@H](c3ccccc31)[C@H](CO)N2C(=O)CN1CCOCC1 | 15 | 12
COc1ccccc1NC(=O)N[C@@H]1CC[C@H](CCn2cc(-c3cccnc3)nn2)O[C@@H]1CO | 1 | -3
CN(C)CC(=O)N1[C@@H](C#N)[C@H](c2ccc(-c3ccc(C(=O)N(C)C)cc3)cc2)[C@@H]1CO | 32 | 7
C[C@H](CO)N1C[C@H](C)[C@@H](CN(C)Cc2ccc(C(F)(F)F)cc2)Oc2ccc(NC(=O)Nc3ccc(F)cc3)cc2C1=O | ? | ·
COc1cccc(NC(=O)Nc2ccc3c(c2)C(=O)N(C)[C@H]2CC[C@H](CC(=O)NCCc4ccccc4)O[C@@H]2CO3)c1 | -3 | -1
COCC#Cc1ccc([C@H]2[C@@H](CO)N3C(=O)CN(C(=O)C4CCCC4)C[C@@H]23)cc1 | 14 | 11
C[C@H]1CN([C@@H](C)CO)C(=O)c2cccc(NS(C)(=O)=O)c2O[C@@H]1CN(C)CC1CCCCC1 | -3 | -5
COCC(=O)N(C)C[C@@H]1Oc2cc(C#Cc3cccnc3)ccc2S(=O)(=O)N([C@@H](C)CO)C[C@H]1C | -33 | -35
Cc1ccccc1S(=O)(=O)N1CC(=O)N2[C@H](CO)[C@@H](c3ccc(C#CCN(C)C)cc3)[C@@H]2C1 | 7 | -3
CO[C@H]1CN(C)C(=O)c2ccc(NC(=O)C3CCC3)cc2OC[C@@H](C)N(C(=O)NC(C)C)C[C@H]1C | 7 | 7
Cc1ccc(S(=O)(=O)Nc2ccc3c(c2)C(=O)N([C@@H](C)CO)C[C@H](C)[C@@H](CN(C)S(=O)(=O)c2cccs2)O3)cc1 | -15 | -6
C[C@@H]1CN([C@@H](C)CO)C(=O)c2cccc(NC(=O)Nc3ccc(C(F)(F)F)cc3)c2O[C@H]1CN(C)C(=O)Nc1ccccc1 | -22 | -12
Cc1ccc(S(=O)(=O)N[C@H]2CC[C@@H](CCNC(=O)C3CCCCC3)O[C@@H]2CO)cc1 | ? | ·
C[C@@H]1CN([C@@H](C)CO)C(=O)c2cc(C#CC3CC3)cnc2O[C@H]1CN(C)C | 3 | 0
COc1ccc(NC(=O)N[C@H]2CC[C@H](CCn3cc(-c4ccccn4)nn3)O[C@H]2CO)cc1 | 7 | 9
O=C(Nc1ccc(F)cc1)N[C@H]1CC[C@H](CC(=O)N2CCCCC2)O[C@@H]1CO | -4 | 3
C[C@@H]1CCCCO[C@@H](CN(C)S(=O)(=O)c2cn(C)cn2)[C@@H](C)CN([C@@H](C)CO)C(=O)c2cc(NC(=O)Nc3ccc(F)cc3)ccc2O1 | 40 | 18
CC(C)NC(=O)N1C[C@H]2[C@@H](c3ccccc31)[C@H](CO)N2Cc1ccccc1 | 6 | 9
CCCc1cn(CC[C@@H]2CC[C@H](NC(=O)Nc3ccccc3F)[C@H](CO)O2)nn1 | -9 | -9
COc1cccc(-c2cccc(-c3nc(C(=O)NCCCN4CCOCC4)cc4c3[C@@H](CCO)N(S(=O)C(C)(C)C)C4)c2)c1 (stereo partly drawn) | ? | ·
N#C[C@@H]1[C@H](c2ccc(C3=CCCC3)cc2)[C@@H](CO)N1C(=O)c1ccccn1 | 8 | -3
Cc1noc(C)c1NC(=O)N(C)C[C@@H]1Oc2ccc(NC(=O)Cc3ccccc3)cc2C(=O)N([C@@H](C)CO)C[C@@H]1C | 2 | -3
COc1ccccc1C#Cc1ccc2c(c1)O[C@@H](CN(C)C)[C@H](C)CN([C@H](C)CO)S2(=O)=O | ? | ·
OC[C@@H]1[C@H](c2ccccc2)C2(CN(Cc3nccs3)C2)N1CC1CCOCC1 | 11 | 6
C/C=C/c1ccc([C@H]2[C@H](CO)N(S(=O)(=O)CC)C23CN(C(=O)CC)C3)cc1 | 10 | 12
CC(C)NC(=O)N(C)C[C@H]1OCCCC[C@H](C)Oc2ccc(NS(=O)(=O)c3ccc(Cl)cc3)cc2C(=O)N([C@H](C)CO)C[C@@H]1C | 7 | 4
COCC#Cc1cnc2c(c1)C(=O)N([C@H](C)CO)C[C@@H](C)[C@H](CN(C)S(=O)(=O)c1cccc(OC)c1)O2 | 11 | 1
C[C@H](CO)N1C[C@H](C)[C@H](CN(C)C(=O)Nc2ccccc2)Oc2c(NC(=O)CCCCCC(=O)Nc3ccccc3N)cccc2C1=O | 35 | 11
CCCNC(=O)N1C[C@@H](C)[C@@H](OC)CN(C)C(=O)c2ccc(NC(=O)CC)cc2OC[C@@H]1C | 7 | 9
COc1ccc(NC(=O)Nc2ccc3c(c2)C(=O)N([C@H](C)CO)C[C@H](C)[C@H](CN(C)C(=O)Nc2ccc4c(c2)OCO4)OCCCC[C@@H](C)O3)cc1 | 2 | -3
C[C@@H]1CN([C@H](C)CO)C(=O)c2cc(NC(=O)Nc3ccc(F)cc3)ccc2O[C@@H]1CN(C)S(=O)(=O)c1cn(C)cn1 | 8 | 10
C/C=C/c1ccc2c(c1)O[C@H](CN(C)Cc1ccncc1)[C@H](C)CN([C@@H](C)CO)S2(=O)=O | -4 | -6
CCCC#Cc1ccc2c(c1)O[C@@H](CN(C)C(=O)c1cccnc1)[C@H](C)CN([C@@H](C)CO)S2(=O)=O | 6 | -3
CO[C@H]1CN(C)C(=O)c2ccc(NC(=O)Nc3ccc(F)cc3)cc2OC[C@H](C)NC[C@@H]1C | 10 | 6
C[C@H](CO)N1C[C@H](C)[C@H](CN(C)Cc2ccc(-c3ccccc3)cc2)Oc2c(NS(=O)(=O)c3ccccc3)cccc2C1=O | -13 | -11
O=C(Nc1cc(F)ccc1F)N1CC(=O)N2[C@H](CO)[C@@H](c3ccc(-c4cccnc4)cc3)[C@@H]2C1 | -5 | -7
CCC(=O)N[C@@H]1CC[C@H](CC(=O)NCc2cc(F)cc(F)c2)O[C@H]1CO | 0 | 6
O=C(c1cnccn1)N1CC[C@@H]2[C@H](CO)Nc3ccc(-c4ccccc4)cc3[C@@H]21 | -3 | -3
CO[C@@H]1CN(C)C(=O)c2cc(NC(=O)c3nc4ccccc4s3)ccc2OC[C@@H](C)N(Cc2ccncc2)C[C@H]1C | ? | ·
COc1ccc(NC(=O)Nc2ccc3c(c2)C(=O)N([C@@H](C)CO)C[C@@H](C)[C@@H](CN(C)C(=O)c2ccccc2)OCCCC[C@H](C)O3)cc1 | 17 | 3
COc1ccc([Si](C)(C)[C@@H]2[C@@H](CCn3cc([C@H](O)c4ccccc4)nn3)O[C@]3(C(=O)N(c4ccccc4)c4ccccc43)[C@H]2C)cc1 | -30 | -17
C[C@@H]1CN([C@@H](C)CO)C(=O)c2cc(NC(=O)Nc3ccc(C(F)(F)F)cc3)ccc2O[C@H]1CN(C)C(=O)Nc1ccc2c(c1)OCO2 | -4 | 1
O=S(=O)(c1ccccc1)N1CCCCN2[C@H](CO)[C@@H](c3ccc(C#Cc4ccccc4)cc3)[C@H]2C1 | -29 | -31
C[C@H]1CCCCO[C@H](CN(C)Cc2ccc(Cl)c(Cl)c2)[C@@H](C)CN([C@@H](C)CO)C(=O)c2cc(N(C)C)ccc2O1 | ? | ·
CCC(=O)N1C[C@@H](C)[C@H](OC)CN(C)C(=O)c2cc(NC(=O)c3ccccc3)ccc2OC[C@@H]1C | 0 | -1
COc1ccc(NC(=O)N(C)C[C@H]2Oc3ncc(-c4cccnc4)cc3C(=O)N([C@@H](C)CO)C[C@H]2C)cc1 | 14 | 19
C[C@H]1CN([C@@H](C)CO)C(=O)c2cccc(NC(=O)c3ccncc3)c2O[C@H]1CN(C)C | 20 | 12
COc1ccc(CN(C)C[C@@H]2Oc3ccc(NC(=O)C4CC4)cc3C(=O)N([C@H](C)CO)C[C@H]2C)cc1 | 2 | -2
CCC(=O)N(C)C[C@@H]1Oc2cc(C#CC3CCCCC3)ccc2S(=O)(=O)N([C@H](C)CO)C[C@@H]1C | ? | ·

6 entries from above, arranged by SMILES length, smallest number first:
compound | Vaccinia stage | Vaccinia stage Venus
C[C@H]1CN([C@@H](C)CO)C(=O)c2cccc(NC(=O)c3ccncc3)c2O[C@H]1CN(C)C | 20 | 12
CO[C@H]1CN(C)C(=O)c2ccc(NC(=O)Nc3ccc(F)cc3)cc2OC[C@H](C)NC[C@@H]1C | 10 | 6
COc1ccccc1C#Cc1ccc2c(c1)O[C@@H](CN(C)C)[C@H](C)CN([C@H](C)CO)S2(=O)=O | ? | ·
O=S(=O)(c1ccccc1)N1CCCCN2[C@H](CO)[C@@H](c3ccc(C#Cc4ccccc4)cc3)[C@H]2C1 | -29 | -31
CCC(=O)N1C[C@@H](C)[C@H](OC)CN(C)C(=O)c2cc(NC(=O)c3ccccc3)ccc2OC[C@@H]1C | 0 | -1
COc1ccc([Si](C)(C)[C@@H]2[C@@H](CCn3cc([C@H](O)c4ccccc4)nn3)O[C@]3(C(=O)N(c4ccccc4)c4ccccc43)[C@H]2C)cc1 | -30 | -17

Continuation.
compound | Vaccinia stage | Vaccinia stage Venus
Cc1noc(C)c1S(=O)(=O)Nc1ccc2c(c1)C(=O)N([C@@H](C)CO)C[C@H](C)[C@H](CN(C)C(=O)c1ccccc1)OCCCC[C@H](C)O2 | 34 | 16
O=C(C[C@@H]1CC[C@H](NC(=O)C2CC2)[C@H](CO)O1)Nc1nccs1 | 21 | 19
CCCc1cn([C@H]2C[C@@H]3O[C@@H](CO)CC[C@@H]3O[C@@H]2CCc2ccc(C#CCc3ccccc3)cc2)nn1 | -26 | -26
CNC[C@H]1Oc2ccc(NC(=O)Cc3cn(C)c4ccccc34)cc2C(=O)N([C@@H](C)CO)C[C@@H]1C | 7 | 7
C[C@H](CO)N1C[C@H](C)[C@H](CN(C)S(=O)(=O)c2ccc(Cl)cc2)Oc2ccc(NC(=O)C3CCCCC3)cc2C1=O | -17 | -15
COCC(=O)Nc1ccc2c(c1)OC[C@H](C)N(CC1CCCCC1)C[C@H](C)[C@@H](OC)CN(C)C2=O | -18 | -9
COc1ccc2c3c([nH]c2c1)[C@H](CO)N(C(=O)Nc1c(C)noc1C)CC31CCN(CC2CC2)CC1 | 2 | -2
C[C@H](O)C#Cc1ccc([C@H]2[C@H]3CN(S(=O)(=O)Cc4ccccc4)CCCCN3[C@H]2CO)cc1 | 1 | 4
N#C[C@@H]1[C@@H](c2ccc(-c3ccccc3F)cc2)[C@@H](CO)N1C(=O)c1ccccn1 | 15 | 1
CO[C@@H](CN(C)S(=O)(=O)c1ccccc1)[C@@H](C)CN(C(=O)Nc1ccccc1F)[C@@H](C)CO | 17 | 11
C[C@@H]1CN([C@H](C)CO)C(=O)c2cc(-c3ccc(C(=O)N(C)C)cc3)cnc2O[C@H]1CN(C)C(=O)C1CC1 | -1 | -1
CN1CCN(C(=O)[C@H]2[C@H](CO)[C@H]3Cn4c(cccc4=O)[C@H]3N2Cc2ccccc2F)CC1 | 13 | 10
C[C@@H]1CN([C@H](C)CO)C(=O)Cc2cc(NC(=O)Nc3ccc(C(F)(F)F)cc3)ccc2O[C@H]1CN(C)C(=O)Nc1ccc2c(c1)OCO2 | 11 | -2
Cc1noc(C)c1S(=O)(=O)N(C)C[C@H]1Oc2ccc(NC(=O)Nc3cccc4ccccc34)cc2CC(=O)N([C@@H](C)CO)C[C@@H]1C | 11 | 20
C[C@H]1CN([C@@H](C)CO)C(=O)c2cc(C#CCc3ccccc3)cnc2O[C@H]1CN(C)CC1CCOCC1 | 4 | 16
COc1ccc2c3c([nH]c2c1)[C@@H](CO)N(C(=O)C1CC1)CC31CCN(C)CC1 | 10 | 4
CC(=O)N[C@H]1CC[C@@H](CCNC(=O)C2CCCCC2)O[C@@H]1CO | 19 | 9
CN1c2ccc(C#Cc3cccnc3)cc2[C@H]2[C@H](CCN2C(=O)c2cccnc2)[C@H]1CO | -1 | 21
CS(=O)(=O)N1[C@@H]2Cn3c(ccc(-c4cccc(F)c4)c3=O)[C@H]1[C@@H](C(=O)N1CCOCC1)[C@@H]2CO | -1 | -2
CC(C)c1cn(CC[C@@H]2CC[C@@H](NC(=O)C3CCOCC3)[C@@H](CO)O2)nn1 | 5 | -4

A few values from above.
For Vaccinia stage Venus, COc1ccc2c3c([nH]c2c1)[C@@H](CO)N(C(=O)C1CC1)CC31CCN(C)CC1 reads 4
For Vaccinia stage Venus, CO[C@@H](CN(C)S(=O)(=O)c1ccccc1)[C@@H](C)CN(C(=O)Nc1ccccc1F)[C@@H](C)CO reads 11
